Compound activity (PubChem)
Yeast UUG start = yeast start codon fidelity modulation; S. cerevisiae UUG-firefly luciferase reporter, luminescence/redox ratio; activity score, % at 18.7 µM; 350,000 compounds, 0.13% hits;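 active means replicate mean at a twofold rise or more, about +100% in these data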;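 further: firefly luciferase made from a UUG start codon reports start codon fidelity; reporter light over untreated wells divided by growth signal over untreated wells; some hits fall short of that in this replicate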
Rce1 inhib = inhibitors of yeast Ras-converting enzyme; 290,000 compounds, 0.27% hits; yeast membranes, quenched prenylated peptide cleavage fluorescence; calls only;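 active means fall in fluorescence gain of 50% or more versus controls, with final raw signal at or below 3038400; inconclusive means same 50% fall but final raw signal above 3038400; inactive means fall in fluorescence gain under 50%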;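 further: plate controls were neutral control wells for no effect and wells lacking membranes for full effect; tested at 10 µM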
CSC inhib = blocks cancer stem cells | cancer stem cell-like cells viability, luminescence | inhibition, % at 7.5 µM | 300,000 compounds, 1.1% hits | AID 2717;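 active means mean at 75% or more and at least half the replicates too; inconclusive means mean and replicates disagree; tested in HMLE shEcad cells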;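 further: 0% = median of negative and 100% = median of positive control wells; the first replicate is given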
Env fusion inh = HIV envelope-mediated fusion inhibition | inhibition, % at 12.3 µM | 360,000 compounds, 1.1% hits | HeLa-JRFL Env/CEM21 cell fusion, luciferase | AID 651610;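 active means mean replicate inhibition score of at least 50 and every replicate individually at or above 50; inconclusive means only one of the two criteria met; inactive means mean below 50 and not all replicates reaching 50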;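 further: 0% = plate neutral controls and 100% = maraviroc near 300 nM; one replicate is shown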
eIF4H FP inh = inhibitors of RNA binding by human eIF4H. Q15056. eIF4H fluorescence polarization binding assay. inhibition, % at 35 µM. 290,000 compounds, 0.94% hits. AID 2012;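 active means 50% or more with normal probe brightness, or confirmed in later tests; inconclusive means above 50% with abnormal brightness, or retests that disagree; inactive means below 50% or failed in later tests; about a fifth of its hits are not listed in these tables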;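 further: calls also rest on retests at 20 µM and on dose response follow-up; 0% = protein and probe with vehicle and 100% = probe without protein; strong numbers were not always called active; many hits fall short of the cut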
PABP FP inh = PABP-poly(A) binding inhibition | 290,000 compounds, 1% hits | inhibition, % at 35 µM | AID 2014 | PABP-poly(A) RNA binding, fluorescence polarization | P11940;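 active means 50% or more with normal probe brightness, or confirmed in later tests; inconclusive means above 50% with abnormal brightness, or retests that disagree; inactive means below 50% or failed in later tests; about a fifth of its hits are not listed in these tables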;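 further: calls also rest on retests at 20 µM and on dose response follow-up; controls were probe without protein and protein plus probe with vehicle; some compounds called inactive have numbers as strong as hits; many hits fall short of the cut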
Target sequence (P11940 whole entry, looked up): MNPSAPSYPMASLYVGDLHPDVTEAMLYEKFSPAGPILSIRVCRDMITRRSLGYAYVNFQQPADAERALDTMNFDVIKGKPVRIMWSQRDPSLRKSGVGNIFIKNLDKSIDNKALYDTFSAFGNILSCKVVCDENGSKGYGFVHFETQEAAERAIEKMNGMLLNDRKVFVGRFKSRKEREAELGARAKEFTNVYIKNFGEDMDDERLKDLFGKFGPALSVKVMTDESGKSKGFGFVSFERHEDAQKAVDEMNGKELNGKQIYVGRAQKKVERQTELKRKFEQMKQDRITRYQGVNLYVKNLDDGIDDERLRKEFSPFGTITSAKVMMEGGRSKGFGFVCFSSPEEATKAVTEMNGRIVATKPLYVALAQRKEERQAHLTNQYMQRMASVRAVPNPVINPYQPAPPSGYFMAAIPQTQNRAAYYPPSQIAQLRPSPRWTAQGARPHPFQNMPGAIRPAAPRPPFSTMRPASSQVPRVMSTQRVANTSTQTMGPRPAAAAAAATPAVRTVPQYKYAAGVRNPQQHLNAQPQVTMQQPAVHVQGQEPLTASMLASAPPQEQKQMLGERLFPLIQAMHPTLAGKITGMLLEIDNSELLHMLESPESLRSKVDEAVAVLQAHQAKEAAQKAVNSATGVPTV
MT1-MMP act inh = blocks activation of human MT1-MMP; 360,000 compounds, 0.061% hits; GFP/RFP ratio change, % at 20 µM; P50281; AID 651647; HT1080 RFP-PRO-GFP cells, GFP/RFP ratio fluorescence, overnight; percent of plate control window, DMSO zero;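 active means GFP/RFP ratio change of at least 30% with cell ATP level not reduced by more than half and red fluorescence within 50% of control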; further: strong numbers were not always called active
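Test system: HT1080 RFP-PRO-GFP cells; Benchmarks: DMSO and RFP-L50D-GFP cell wells; Timing: cells overnight before dosing, compound overnight, 37 °C, 5% CO2; Compound: one 20 µM compound dose with 1% DMSO; Read-out: GFP/RFP fluorescence ratio.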
eIF4H FP inh retest = second read-out of eIF4H FP inh, no call of its own (marks repeat the call); inhibition, %; compound at 20 µM; confirmation average;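 mean of two retest wells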
PABP FP inh retest = further read-out of PABP FP inh, marked with its call; inhibition, %; compound at 20 µM; confirmation repeats;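 mean of two retest wells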
MT1-MMP act inh RFP = second read-out of MT1-MMP act inh, no call of its own (marks repeat the call); RFP signal change, %; measured here: RFP expression control read;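 0 = vehicle wells; hits needed this value within 50% of zero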
The depositor's hits bear a star; i = inactive; ? = inconclusive; . = not tested or not shown; + = active, no number.

SMILES | Yeast UUG start | Rce1 inhib | CSC inhib | Env fusion inh | eIF4H FP inh | PABP FP inh | MT1-MMP act inh | MT1-MMP act inh RFP | others
O=c1cccc2n1CC1CC2CN(c2nc(N3CCCCC3)nc(N3CCCCC3)n2)C1 (stereo not drawn) | . | i | 2 | 82* | -5 | -14 | -3 | 4
COC(=O)C1=C(c2ccc(F)cc2OCc2ccccc2)C[C@@H]2CC[C@H]1N2C(=O)NCc1ccc(Br)cc1 | -23 | . | 28 | 5 | . | . | -10 | -13
CCn1cc(C(=O)c2cccs2)c2ccccc21 | . | i | 4 | -82 | -6 | -9 | 0 | -7
Cc1cccc(OCC(=O)N2CCN(Cc3ccc4c(c3)OCO4)CC2)c1 | -15 | i | -3 | 9 | -2 | -6 | -1 | 0
O=C(O)c1ccccc1NC(=O)C1C2CCC(O2)C1C(=O)O (stereo not drawn) | . | i | 29 | . | -6 | -9 | . | .
CCC[N+]12CCC(CC1)C(=C(c1ccccc1)c1ccccc1)C2 | . | i | 10 | -20 | -3 | -22 | 1 | -2
CC1CCCC(C2(O)C(=O)Nc3ccccc32)C1=O (stereo not drawn) | 0 | i | -14 | . | -9 | 22 | 1 | 2
C=CCn1c(O)c(C(C)=NCC2CCCO2)c(=O)[nH]c1=O (stereo not drawn) | -1 | i | -17 | -1 | 8 | 2 | 1 | 3
CCOC(=O)[C@@]1(C#N)C(c2ccc(Cl)c(Cl)c2)[C@H](C(N)=O)N2C=C(C(C)=O)C=C[C@H]21 (stereo partly drawn) | -10 | i | -6 | . | 48 | 24 | -20 | 2
CCn1ccnc1CN1CCCC(C(=O)c2ccc(SC)cc2)C1 (stereo not drawn) | . | i | 10 | 5 | -2 | -14 | -3 | -4
Cc1cc(OCC(=O)NC(Cc2ccc(Cl)cc2)C(=O)O)c2c3c(c(=O)oc2c1)CCC3 (stereo not drawn) | -16 | i | -14 | . | 8 | -3 | 0 | 4
O=[N+]([O-])c1ccc(CN2CC=C(c3ccccc3)CC2)cc1 | -10 | i | 22 | . | -7 | 8 | 3 | 8
CCN(CC)c1ccc(CNCCc2ccc(F)cc2)cc1 | . | i | 52 | 37 | -5 | 5 | 1 | 0
COc1cc2c(c(OC)c1OC)-c1ccc(O)c(=O)cc1[C@@H](N)CC2 | -25 | . | 0 | . | . | . | 4 | 1
Cc1cc(C)cc(NC(=S)NC2CC3CCCC(C2)N3Cc2cccs2)c1 (stereo not drawn) | -20 | i | -14 | . | -5 | -2 | 10 | 3
Cc1ccc(N2C(=O)NC(=O)/C(=C/c3ccoc3)C2=O)cc1 | . | . | . | -3 | ? | ? | -94 | 18
COC(=O)c1c2[n+](cc3cc(OC)c(OC)cc13)CCc1cc(OC)c(OC)cc1-2 | . | i | 2 | -4 | . | . | 7 | 0
O=C1NCN(c2ccccc2)C12CCN(C(c1nnnn1Cc1ccccc1)C1CC1)CC2 (stereo not drawn) | 18 | . | . | -2 | . | . | -4 | -5
CCCCCCn1c(=O)c(C(=O)Nc2nc(CC(=O)OCC)cs2)c(O)c2ccccc21 | . | i | 4 | -7 | 5 | 3 | -9 | -13
COc1ccc(NC(=O)N2CCC3(CC2)OCCO3)cc1OC | -19 | i | 6 | 4 | -8 | 4 | -7 | -3
CC(=NCCCn1ccnc1)c1c(O)n(C)c(=O)n(C)c1=O | -9 | i | -4 | -13 | 6 | 3 | -4 | -1
Cc1ccc(/C=C2/C(=O)NC(=O)N(Cc3ccc(F)cc3)C2=O)o1 | . | i | 13 | -133 | 39 | -3 | . | .
COc1cc(/C=C2\C(=O)NC(=O)N(c3ccccc3)C2=O)cc(OC)c1O | 7 | i | -6 | -29 | 114 | 108 | -3 | 5 | eIF4H FP inh retest=1;PABP FP inh retest=6
COc1ccc(Cn2c(O)c(C=NCCCn3ccnc3)c(=O)[nH]c2=O)cc1 | -6 | i | -6 | . | 0 | 3 | -4 | 0
O=C(CCN1CC1)OCCOC(=O)CCN1CC1 | -24 | . | . | -4 | . | . | 1 | 6
CCn1ccnc1CN1CCCC(C(=O)c2cccc(C(F)(F)F)c2)C1 (stereo not drawn) | . | i | 5 | 5 | 0 | 3 | 1 | 0
CN(C(=O)Cc1ccc2c(c1)OCO2)C1CCCN(Cc2ccccc2F)C1 (stereo not drawn) | 3 | i | 1 | 14 | . | . | -3 | 0
Fc1ccc(CNCCc2c[nH]c3ccccc23)cc1 | -7 | i | 6 | -14 | -4 | 0 | 3 | 3
OCCN1C2CCC1CC(O)(c1ccc(F)cc1)C2 (stereo not drawn) | -19 | i | 4 | -42 | 0 | -7 | -2 | 1
Cc1ccccc1OP(N)(=O)Oc1ccccc1C | . | i | 1 | 13 | -3 | 4 | -2 | -3
CCCCN1C(=O)NC(=O)C2(Cc3cc(C)ccc3N(C)C2)C1=O (stereo not drawn) | -34 | i | -5 | . | -1 | 14 | -1 | -1
COc1ccc(-n2c(O)c(C(C)=NCCCn3ccnc3)c(=O)[nH]c2=O)cc1 | -17 | i | -14 | 69* | -10 | 0 | -3 | -2
COc1ccccc1-n1c(CNCC2CCCO2)nc2ccccc2c1=O (stereo not drawn) | -12 | i | -9 | . | -2 | 0 | -6 | 3
COC(=O)C1=C(c2ccc(-c3ccccc3)c(F)c2)C[C@@H]2CC[C@H]1N2C(=O)N1CCCC1 | -6 | . | 20 | -4 | . | . | 16 | -28
Cc1c(N=Nc2c(O)n(-c3ccc(Br)cc3)c(=O)[nH]c2=O)c(=O)n(-c2ccccc2)n1C | -13 | i | 6 | 17 | -3 | -13 | 3 | -1
COc1ccc(OC)c(NC2=NCCS2)c1 | -12 | i | 2 | -11 | -2 | -4 | 2 | 2
Cc1cccn2c(=O)c3c(nc12)N1CCc2ccccc2C1C1(C3)C(=O)NC(=O)N(C)C1=O (stereo not drawn) | 4 | i | -4 | 27 | 6 | 17 | 3 | 1
COc1ccc(CCNCc2ccccn2)cc1OC | -29 | i | -17 | 11 | -5 | 2 | 1 | 5
COc1ccc(CC(=O)N2CCN(C)CC2)cc1 | -9 | i | . | -74 | -3 | -11 | . | .
CC(C)CN1Cc2cc(-c3cccc(F)c3)ccc2-n2nncc2C1 | -6 | . | . | -11 | . | . | 0 | 2
C=CC[N+]1(C)CC[C@]23c4c5ccc(O)c4O[C@H]2C(=O)CC[C@@]3(O)[C@H]1C5 (stereo partly drawn) | -9 | + | -13 | 8 | . | . | -2 | 2
O=C1NC(=O)C(=Cc2ccc(N3CCOCC3)cc2)C(=O)N1 | -26 | i | -8 | -5 | 16 | 3 | -6 | 1
O=S(=O)(c1cc(Cl)cc(Cl)c1)N1Cc2cc(-c3ccccc3)ccc2-n2nncc2C1 | -10 | . | . | -36 | . | . | 0 | -3
O=C(O)COc1ccccc1 | -13 | . | -2 | . | . | . | 2 | 10
COC(=O)C1=C(c2ccc(F)cc2OCc2ccccc2)C[C@@H]2CC[C@H]1N2C(=O)NC1Cc2ccccc2C1 | -18 | . | 17 | 57* | . | . | -2 | -10
O=C(c1ccc2c(c1)OCO2)C1CCCN(Cc2ccccn2)C1 (stereo not drawn) | -22 | i | -11 | 11 | 48 | 6 | 1 | 2
CC(=NCCCn1ccnc1)c1c(O)n(C2CCCCC2)c(=O)[nH]c1=O | -18 | i | -5 | 0 | -9 | -3 | 4 | 5
Cc1ccc(OCCOc2cccc(C=C3C(=O)NC(=O)NC3=O)c2)cc1 | -19 | i | 3 | 5 | -2 | 10 | 3 | 4
O=C(Cn1ncn2c(cc3cc(F)ccc32)c1=O)N1CCC2(CC1)OCCO2 | -4 | i | 1 | 3 | -9 | -4 | 1 | 1
C=CCn1c(=O)c(C=Nc2cccnc2Cl)c(O)n(CCCC)c1=O | . | . | 10 | -12 | ? | 1 | -86 | 6
CCOC(=O)[C@@H]1[C@H]2COc3ccc(Br)cc3[C@@H]2N2C(=O)N(c3cccc(C)c3)C(=O)[C@]12C | -14 | + | -8 | -46 | -9 | -1 | -1 | -3
CC(=O)N1CCN(CCN=Cc2c(O)n(-c3ccc(C)cc3)c(=S)[nH]c2=O)CC1 | 18 | i | -9 | 1 | -1 | 0 | 1 | 2
Cc1cccc(N2C(=O)/C(=C/N3CCN(C(=O)c4ccco4)CC3)C(=O)NC2=S)c1 | -22 | i | -13 | . | 30 | 21 | -14 | 8
O=C1/C(=C\c2cc3c(cc2Br)OCO3)N2CCC1CC2 | . | i | -5 | . | 70* | 5.0* | 0 | 0 | eIF4H FP inh retest=73*;PABP FP inh retest=51*
CC(=NCCCN1CCOCC1)c1c(O)n(-c2ccccc2C)c(=O)[nH]c1=O | -7 | i | -15 | -28 | -8 | -2 | 0 | 8
Cc1cc(OC(=O)c2ccco2)c2c3c(c(=O)oc2c1)CCCC3 | . | i | 10 | . | -7 | -3 | -5 | -26
O=C(Cn1nc(-c2ccccc2)ccc1=O)N1CCC2(CC1)OCCO2 | -2 | i | -10 | 3 | 7 | 6 | 3 | 3
O=C(C1CC(c2ccccc2O)=NO1)N1CCC2(CC1)OCCO2 (stereo not drawn) | -28 | i | 12 | -16 | 6 | -4 | -1 | 6
CCOc1ccc(CNCCc2ccc3c(c2)OCO3)cc1 | -26 | i | 26 | -16 | 4 | 1 | -1 | 0
CC(C)C[C@H]1C(=O)N2CCCC2[C@]2(O)O[C@](NC(=O)[C@@H]3C=C4c5cccc6[nH]cc(c56)CC4N(C)C3)(C(C)C)C(=O)N12 (stereo partly drawn) | 3 | i | -10 | . | ? | 19 | -39 | 11
CCOP(=O)(OCC)C(O)c1cccc([N+](=O)[O-])c1 (stereo not drawn) | . | i | -1 | 1 | -13 | -15 | -1 | 3
O=c1[nH]c(=S)n(C2CC2)c(O)c1/C=N/Nc1cccc2ccccc12 | -16 | i | 8 | -7 | 52 | 4 | 2 | 5 | eIF4H FP inh retest=20;PABP FP inh retest=36

Fetched by structure from above, six records:
SMILES | Yeast UUG start | Rce1 inhib | CSC inhib | Env fusion inh | eIF4H FP inh | PABP FP inh | MT1-MMP act inh | MT1-MMP act inh RFP | others
O=C(c1ccc2c(c1)OCO2)C1CCCN(Cc2ccccn2)C1 (stereo not drawn) | -22 | i | -11 | 11 | 48 | 6 | 1 | 2
O=C(Cn1ncn2c(cc3cc(F)ccc32)c1=O)N1CCC2(CC1)OCCO2 | -4 | i | 1 | 3 | -9 | -4 | 1 | 1
CCOc1ccc(CNCCc2ccc3c(c2)OCO3)cc1 | -26 | i | 26 | -16 | 4 | 1 | -1 | 0
Cc1cc(OC(=O)c2ccco2)c2c3c(c(=O)oc2c1)CCCC3 | . | i | 10 | . | -7 | -3 | -5 | -26
O=C(C1CC(c2ccccc2O)=NO1)N1CCC2(CC1)OCCO2 (stereo not drawn) | -28 | i | 12 | -16 | 6 | -4 | -1 | 6
O=S(=O)(c1cc(Cl)cc(Cl)c1)N1Cc2cc(-c3ccccc3)ccc2-n2nncc2C1 | -10 | . | . | -36 | . | . | 0 | -3

Some of the compounds tested; rates above refer to the full screens.
